# Compound activity (PubChem BioAssay)
# FGF22 binding: FGF22 (human) thermal shift binding; Q9HCT0; recombinant FGF22 thermal shift, SYPRO orange fluorescence; percent of sucrose octasulfate shift, DMSO zero; calls only at 9.99 µM; actives 1.5% (n = 340,000); AID 651658;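 active = melting point raised past a set limit in the mean and every replicate; three in four hits are not shown here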
# Vif TR-FRET: inhibitors of Vif binding to APOBEC3G peptide, primary screen, biochemical, TR-FRET, GST-Vif 1-94, biotin-A3G peptide, dose response retest (AID 1117319) | TR-FRET GST-Vif / biotin-A3G peptide binding; higher % means a stronger effect; test concentration not given here; strong numbers were not always called active | inhibition, %, or IC50 in µM where a hit was titrated | actives 0.57% (n = 260,000);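 active = above the screen mean plus three standard deviations and confirmed in dose response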;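 also: Vif residues 1-94 fused to GST binding biotinylated APOBEC3G peptide 110-148; 0% = full assay without inhibitor and 100% = GST in place of GST-Vif; retest series ran down from 100 µM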
# E coli growth: inhibitors of Escherichia coli growth. OD600, 23 h; stronger effect = lower value. OD600 absorbance (no concentration beside the values). actives 0.21% (n = 330,000);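 active = OD600 absorbance below the run mean of sample wells minus 3.6 SD, in any replicate, cut at about 0.56 in these data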;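 also: stock transfer was 300 nL into about 60 µL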
# AF4-AF9 inh: MLL-AF4/AF9 protein interaction inhibition | AlphaScreen, biotin-AF4 peptide binding to FLAG-AF9 | inhibition, % at 10 µM | actives 0.47% (n = 350,000) | AID 651704;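 active = every replicate reaching a set inhibition limit, whatever the replicate mean, cut at about 25% in these data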;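 also: 0% = plate neutral control median and 100% = total signal loss; the record names both 10 and 1 µM as test concentration; the first replicate is given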
# Target sequence (P42568 whole entry, looked up): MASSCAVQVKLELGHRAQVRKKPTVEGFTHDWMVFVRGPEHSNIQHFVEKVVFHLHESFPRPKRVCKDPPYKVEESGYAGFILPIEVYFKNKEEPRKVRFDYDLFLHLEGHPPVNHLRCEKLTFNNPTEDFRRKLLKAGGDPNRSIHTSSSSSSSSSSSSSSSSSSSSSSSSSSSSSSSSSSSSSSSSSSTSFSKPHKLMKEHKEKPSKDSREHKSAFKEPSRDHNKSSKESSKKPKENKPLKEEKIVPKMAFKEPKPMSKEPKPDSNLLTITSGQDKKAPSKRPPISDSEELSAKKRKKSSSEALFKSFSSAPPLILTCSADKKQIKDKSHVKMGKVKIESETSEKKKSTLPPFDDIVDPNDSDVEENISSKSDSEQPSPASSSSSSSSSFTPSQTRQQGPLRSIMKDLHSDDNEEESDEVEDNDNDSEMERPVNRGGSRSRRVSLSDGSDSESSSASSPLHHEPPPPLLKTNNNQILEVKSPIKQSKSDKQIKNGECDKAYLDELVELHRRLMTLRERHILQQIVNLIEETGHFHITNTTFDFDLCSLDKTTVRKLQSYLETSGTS
# rRNA inh HTS: inhibits bacterial ribosomal RNA function over humanized ribosomes | E. coli WT GFP vs humanized-ribosome RFP mutants, fluorescence, 24 h; stronger effect = lower value; DMSO median 0, no signal -100 | GFP signal change (wild-type ribosome), % (test concentration not listed) | actives 1.6% (n = 350,000);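 active = significant combined selectivity score with lowered wild-type GFP, culture density cut under 30%, mutant RFP and density less affected; inactive = any of these conditions unmet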; also: one replicate is shown; some compounds called inactive have numbers as strong as hits
# HNF4A DNA FP: change in binding of human HNF4 alpha to DNA; P41235; HNF4a-FITC DNA binding, fluorescence polarization, 1 h; activity change, % at 10 µM; actives 0.3% (n = 360,000); AID 1224865; in the data active = activity change above about 30%, passing the limit was not always enough;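 also: controls were the assay level and a saturating level of protein; the project sought stronger binding though the title names inhibitors; some compounds called inactive have numbers as strong as hits; positive values seem to mean higher polarization but the record does not say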
# Target sequence (P41235 whole entry, looked up): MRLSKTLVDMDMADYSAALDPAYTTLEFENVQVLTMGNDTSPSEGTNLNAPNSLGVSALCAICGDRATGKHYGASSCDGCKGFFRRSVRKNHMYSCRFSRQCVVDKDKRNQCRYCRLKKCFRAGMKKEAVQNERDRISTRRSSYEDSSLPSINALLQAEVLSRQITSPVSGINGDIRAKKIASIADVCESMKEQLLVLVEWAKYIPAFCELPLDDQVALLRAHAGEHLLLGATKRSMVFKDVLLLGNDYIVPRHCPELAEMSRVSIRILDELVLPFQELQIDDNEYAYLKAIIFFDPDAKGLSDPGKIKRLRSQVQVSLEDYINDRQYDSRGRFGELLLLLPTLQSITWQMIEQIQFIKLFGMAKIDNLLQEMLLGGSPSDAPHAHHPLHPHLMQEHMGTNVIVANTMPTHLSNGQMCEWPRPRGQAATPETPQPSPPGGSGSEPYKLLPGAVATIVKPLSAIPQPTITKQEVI
# ALR inh: inhibitors of human sulfhydryl oxidase ALR; P55789; purified ALR, DTT oxidation, H2O2 HRP-luminol luminescence; inhibition, % (concentration not given with the values); actives 3.8% (n = 290,000); AID 485317;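 active = mean and each replicate at 75% or more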;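 also: stock transfer was 7.5 nL into about 7.5 µL; 0% = neutral wells and 100% = wells with inactivated enzyme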
# rRNA inh HTS OD600: recorded beside rRNA inh HTS, whose call it bears; OD600 change, %; measured here: OD600 growth;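 optical density of the mix in the first replicate; 0 = DMSO median and -100 = no signal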
# rRNA inh HTS RFP: also measured in rRNA inh HTS; calls as there; RFP signal change, %; measured here: RFP humanized mutant strains;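 first replicate; 0 = DMSO median and -100 = no signal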
# An asterisk follows results filed as active; i = inactive; . = no result given; & = joins results of further samples.
FGF22 binding,compound,Vif TR-FRET,E coli growth,AF4-AF9 inh,rRNA inh HTS,rRNA inh HTS OD600,rRNA inh HTS RFP,HNF4A DNA FP,ALR inh
i,Cc1ccc(-c2cnc(C(O)c3cccc(C)c3C)[nH]2)cc1 (stereo not drawn),.,.,-7.6,6.4,-1.8,0.9,-1.1,.
i,COc1ccc(OCC(NS(=O)(=O)c2ccc(-n3cnnn3)cc2)C(C)C)cc1 (stereo not drawn),.,0.655,2.1,-23.4,-17.9,-10.1,-4.1,-12.2
i,COc1ccc(CNC(=O)CCc2ccc(S(=O)(=O)N3CCCCCC3)cc2)cc1,.,0.664,0.3,-5.8,-5.5,2.0,-1.0,.
.,Cc1ccc(NC(=O)CN(C)C(=O)CSc2n[nH]c(N)n2)cc1,1.7%,0.645,.,.,.,.,0.5,-5.6
i,C[C@@H]1CCCCO[C@@H](CN(C)C(=O)Nc2ccc(F)cc2)[C@H](C)CN([C@@H](C)CO)C(=O)c2cc(NC(=O)Nc3cccc4ccccc34)ccc2O1,.,.,-1.7,2.0,8.2,0.7,.,.
.,CSc1nnc2c3c4c(sc3nc(-n3nc(C)cc3C)n12)COC(C)(C)C4,-3.0%&1.2%,0.733,.,.,.,.,2.8,.
i,C[C@H]1CCCCO[C@H](CN(C)Cc2ccc3c(c2)OCO3)[C@@H](C)CN([C@@H](C)CO)C(=O)c2cc(NC(=O)Nc3ccc(C(F)(F)F)cc3)ccc2O1,.,.,6.6,-2.7,-5.4,0.6,.,.
i,C[C@@H]1CCCCO[C@H](CN(C)C(=O)NC2CCCCC2)[C@H](C)CN([C@@H](C)CO)C(=O)c2cc(NC(=O)NC3CCCCC3)ccc2O1,.,.,-1.6,-4.6,-4.0,-0.6,.,.
i,O=C(C[C@H]1CC[C@H](NC(=O)c2cccc(F)c2)[C@@H](CO)O1)NCc1ccccc1,.,.,-2.2,-5.2,5.3,-2.1,.,.
i,CCCCn1c(O)c(N=NC(=O)Cn2c(C(F)(F)F)nc3ccccc32)c2ccccc21,-10.4%,0.737,0.3,14.7,8.6,-1.6,2.3,2.7
i,C[C@@H](O)C#Cc1cnc2c(c1)C(=O)N([C@@H](C)CO)C[C@H](C)[C@H](CN(C)C(=O)Cc1ccccn1)O2,.,.,-3.2,4.2,20.4,2.2,.,.
i,COc1ccc(C(=O)NNC(=O)Cn2nc(C)cc2C)cc1S(=O)(=O)N1CCOCC1,.,.,-2.2,21.5,24.1,-0.2,5.8,.
.,COc1ccc(C2CC(c3cc(OC)ccc3OC)n3nnnc3N2)cc1 (stereo not drawn),15.3%,0.693,.,.,.,.,-1.5,-12.9
i,COc1ccc(Cl)cc1NC(=O)[C@@]1(CC(=O)O)CC(/C=C/c2ccccc2)=NO1,-9.7%,0.671,0.2,-5.1,-0.6,0.2,1.7,.
i,CCOC(=O)C1=C(COC(=O)CNS(=O)(=O)c2c(F)cc(F)cc2Br)NC(=O)NC1C (stereo not drawn),.,0.648,-0.5,7.2,11.1,-5.2,-2.2,.
i,Cc1ccc(S(=O)(=O)N2CCN(Cc3csc(C)n3)CC2)cc1,.,0.717,0.8,11.5,10.9,0.1,-5.9,0.1
i,CN(Cc1ccc(N(C)C)cc1)C(=O)c1cc2ccccc2o1,-5.1%,0.618,11.1,-7.1,-12.3,5.1,2.2,76.4*
i,O=C(Cn1c(=O)n(Cc2ccc(F)cc2)c(=O)c2ccccc21)NCC1CCCO1 (stereo not drawn),.,0.696,-1.9,2.4,9.8,-0.6,2.1,.
i,CCc1nc(SCC(=O)Nc2nnc(C(C)C)s2)n[nH]1,.,.,-4.0,6.2,6.5,-1.2,7.4,.
i,Cc1ccc(S(=O)(=O)N2CCC(C(=O)N3CCCCCCC3)CC2)cc1C,5.0%,.,2.7,.,.,.,-0.5,.
i,Cc1ccc(-c2[nH]nc3c2C(c2ccc(OC(=O)N4CCOCC4)cc2)C(C#N)=C(N)O3)cc1 (stereo not drawn),0.6%,0.752,5.6,-34.3,4.4,-1.7,-1.4,.
i,Cc1cccc(CSc2nnc(Cn3c(=O)sc4ccccc43)n2C)c1,16.8%,0.687,1.8,-3.0,-13.3,1.2,4.9,3.2
i,CC(Oc1cc2oc(=O)c3c(c2cc1Cl)CCC3)C(=O)NCCCn1ccnc1 (stereo not drawn),.,0.686,0.4,6.3,3.0,-0.7,-1.0,-4.2
.,COc1cc(OC)c2c(C)c(Cl)c(=O)oc2c1,1.6%,0.705,2.6,.,.,.,-1.6,-1.1
i,COc1ccc(S(=O)(=O)N2CCOCC2)cc1NC(=O)CN1CCCc2ccccc21,-11.7%,0.724,10.3,16.6,7.3,3.0,1.2,25.3
i,COc1ccc(C#Cc2cnc3c(c2)C(=O)N([C@@H](C)CO)C[C@H](C)[C@H](CN(C)CC2CC2)O3)cc1,.,.,3.4,2.4,5.5,-4.8,.,.
i,Cc1ccccc1OCC(=O)OCC(=O)Nc1cc(C(F)(F)F)ccc1N1CCOCC1,.,0.663,-0.9,5.1,1.1,-0.3,-0.6,-16.5
i,COc1ccc(CN2C3CCC2CC(NC(=O)c2cc(OC)c(OC)c(OC)c2)C3)cc1 (stereo not drawn),.,0.719,5.9,13.8,4.3,0.2,-3.0,.
.,O=C(NC(Cc1ccccc1)C(=O)O)/C(=C\c1ccco1)NC(=O)c1ccco1 (stereo not drawn),7.3%,.,-2.5,20.6,17.9,7.1,-4.5,-4.1
i,CC(C)c1ccc(C(=O)N2CCCC(c3cc(C(=O)Nc4ccccc4Cl)no3)C2)cc1 (stereo not drawn),.,.,1.9,1.4,-23.6,1.6,3.0,.
i,CCN1CCN(CCCN(Cc2ccco2)C(=S)Nc2ccccc2Cl)CC1,-3.4%,0.668,-2.5,0.1,-3.0,0.6,-2.1,.
i,COc1ccccc1OCC(=O)NCC1CCCN(C(=O)c2ccccc2SC)C1 (stereo not drawn),.,0.728,-0.7,1.1,6.3,0.1,-2.1,-1.5
i,CCN(CC)S(=O)(=O)c1ccc(NS(=O)(=O)c2ccc3oc(=O)[nH]c3c2)cc1,.,0.684,-3.2,-1.6,-9.8,0.2,0.4,.
i,C=CCN=C1NC(c2cccc(F)c2)C(C(=O)OC)=C(C)N1C (stereo not drawn),.,.,-0.6,21.7,17.5,2.7,.,.
.,COc1ccc(NC(=S)NC(NC(=O)CCl)C(Cl)(Cl)Cl)c([N+](=O)[O-])c1 (stereo not drawn),8.9%,0.692,.,.,.,.,-4.8,.
i,O=C(OCCN1CCN(C2=NS(=O)(=O)c3ccccc32)CC1)c1cccc(Br)c1,-11.3%,0.7,0.4,-1.2,6.6,-1.8,1.1,.
.,CC1CCN(C(=O)CCCNC(=O)Cn2cnc3sc4c(c3c2=O)CCCC4)CC1,-8.1%,0.702,.,.,.,.,-2.2,.
.,COC(=O)c1ccccc1NC(=S)NC(=O)COc1ccccc1,4.8%,0.66,.,.,.,.,3.4,13.5
i,Cc1cc(C)cc(Cn2c3ccc(NC(=S)NCc4ccccc4F)cc3c(=O)n2C)c1,.,.,-1.6,3.8,-13.9,3.7,-1.0,.
i,COc1cccc(S(=O)(=O)N[C@@H]2C=C[C@@H](CC(=O)NC3Cc4ccccc4C3)O[C@@H]2CO)c1,.,.,1.5,-1.5,1.4,-2.5,.,.
.,O=C(Nc1cccnc1)Nc1ccccn1,0.5%,0.669,.,.,.,.,11.0,0.6
i,O=C(Nc1ccccc1)c1nc2ccccc2s1,.,0.714,2.7,-27.1,-22.6,-4.0,0.3,-0.8
i,NC(=O)C(CCC(=O)c1ccc(Br)cc1)S(=O)(=O)c1ccccc1 (stereo not drawn),-5.5%,0.718,-7.2,-4.4,-3.8,1.9,1.7,5.6
i,O=C(NC1CCCC1)c1cc(-c2ccc(F)cc2)on1,16.9%,0.669,-6.4,.,.,.,-0.8,-1.2
i,CC(C)c1cn(CC[C@@H]2CC[C@@H](NC(=O)C3CCC3)[C@H](CO)O2)nn1,.,.,2.6,-1.9,1.2,-2.3,.,.
i,NNc1ccc2c(C(F)(F)F)cc(C(F)(F)F)nc2n1,-2.3%,0.724,3.9,10.4,4.2,0.6,3.5,-3.4
i,Clc1ccc(-c2n[nH]c3c2CCCC3)cc1,-3.7%,0.691,0.2,-58.7,-82.5,-22.9,1.2,-0.1
i,COc1ccc(OC)c(Nc2nc(NCCCN(C)C)nc(N)c2[N+](=O)[O-])c1,5.6%,0.596,11.2,0.7,-2.6,3.3,2.1,-6.5
i,CC1Sc2ccc(S(=O)(=O)CCC(=O)NCc3ccccc3)cc2NC1=O (stereo not drawn),.,0.681,0.9,-2.5,1.9,0.6,-0.9,-3.4
i,CO[C@H]1CN(C)C(=O)c2cc(NS(C)(=O)=O)ccc2OC[C@@H](C)N(C)C[C@@H]1C,.,.,-2.7,0.2,8.9,-0.5,.,.
i,Cc1ccc(C)c(N2CCN(S(=O)(=O)c3cccc4cccnc34)CC2)c1,.,0.653,2.3,-15.1,-17.8,-3.2,-3.0,1.3
.,Cc1cccc(-c2n[nH]c(=S)n2Cc2ccccc2)c1,.,0.654,.,.,.,.,1.9,73.3
i,CC(=O)Nc1ccc(NC(=O)C(C)OC(=O)COc2ccc(Nc3ccccc3)cc2)cc1 (stereo not drawn),-2.1%,0.648,12.2,-4.6,7.5,1.1,-0.3,99.3*
i,CCc1nc2ccc(C(=O)N(CC)CCN(C)C)cn2c1N(C=O)CCC(C)C,.,.,-0.5,5.6,26.2,-6.5,-2.3,.
i,C[C@@H]1CN([C@H](C)CO)C(=O)c2cc(-c3cccnc3)cnc2O[C@@H]1CN(C)C(=O)Cc1cccnc1,.,.,-4.7,3.4,9.4,-2.4,.,.
i,O=S(=O)(NCC(c1cccnc1)N1CCN(c2ccc(F)cc2)CC1)c1ccc(F)cc1 (stereo not drawn),2.4%,0.767,6.9,-1.9,-6.5,-1.0,0.1,48.0

# Random excerpt: two entries already listed
FGF22 binding,compound,Vif TR-FRET,E coli growth,AF4-AF9 inh,rRNA inh HTS,rRNA inh HTS OD600,rRNA inh HTS RFP,HNF4A DNA FP,ALR inh
i,C[C@@H]1CN([C@H](C)CO)C(=O)c2cc(-c3cccnc3)cnc2O[C@@H]1CN(C)C(=O)Cc1cccnc1,.,.,-4.7,3.4,9.4,-2.4,.,.
i,CC1Sc2ccc(S(=O)(=O)CCC(=O)NCc3ccccc3)cc2NC1=O (stereo not drawn),.,0.681,0.9,-2.5,1.9,0.6,-0.9,-3.4

# Further results
FGF22 binding,compound,Vif TR-FRET,E coli growth,AF4-AF9 inh,rRNA inh HTS,rRNA inh HTS OD600,rRNA inh HTS RFP,HNF4A DNA FP,ALR inh
i,C[C@@H]1CN([C@H](C)CO)C(=O)CCCn2cc(nn2)CO[C@H]1CN(C)C(=O)OCc1ccccc1,9.1%,.,-0.7&-0.3,7.7,10.7,3.9,1.2,.
.,CCNC(=O)CC1C(=O)N(c2ccc(C)cc2)C(=O)N1CCc1ccc(OC)c(OC)c1 (stereo not drawn),>100µM*,0.685,.,.,.,.,3.5,-5.1
i,CCC(=O)N(C)C[C@H]1Oc2cc(C#CC(C)C)ccc2S(=O)(=O)N([C@@H](C)CO)C[C@@H]1C,.,.,0.5,-7.2,-12.6,-1.3,.,.
i,CC(C)NC(=O)Nc1ccc2c(c1)C(=O)N([C@H](C)CO)C[C@@H](C)[C@H](CN(C)C(=O)NC1CCCCC1)OCCCC[C@@H](C)O2,.,.,-1.1,-1.9,-3.2,0.8,.,.
i,Cc1ccc(C(=O)N2c3ccccc3N(Cc3ccccc3)C(=O)C2(C)C)cc1,3.2%,0.683,4.9,-8.0,-2.0,-10.1,-2.1,5.9
.,C=CCn1c(SCC(=O)NCc2ccccc2)nnc1-c1ccccc1O,-7.7%,0.698,.,.,.,.,-0.8,5.5
i,O=C1NNC(c2ccccc2)=N/C1=C\c1ccccc1Cl,3.6%,0.672,3.8,9.4,9.6,1.4,4.1,.

# A portion of the library; the hit share may differ from the screen's.
